# HSD17B inh: blocks hydroxysteroid 17-beta dehydrogenase activity; 7.6% of 75,000 active; Potency, µM (doses to about 57.1 µM), for inactives: top-dose activity change, negative = inhibition, hits mostly inhibitors; recombinant HSD17B10, NADH fluorescence kinetic; many of its hits are not listed in these tables; active means well fitted inhibition curve with a large enough effect; inconclusive means small, poorly fitted or top-dose-only effect; inactive means no such curve, though single readings can be large or run the other way;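 further: the protocol describes HADH2 (HSD17B10) and not the HSD17B4 of the title; nearly all actives have a fitted effect of over 70% in size; most hits overshoot -100% by far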
#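 Activity followed as NADH fluorescence increase (ex 360, em 450 nm) every 30 seconds for 4 min, using final 90 uM beta-hydroxybutyryl CoA and 1 mM NAD+. Recombinant His-tagged enzyme, 20 nM, pH 9.0 Tris buffer, 15 min compound preincubation.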
# * = called active by the depositor; ? = inconclusive; ! = not confirmed by another sample; [ ] = remark or other dose. On the % scale 0 is the no-effect control and ±100 the full control effect; potency means the concentration at half of the fitted maximal effect.
structure,HSD17B inh
Cc1cc(N)c2ccccc2[n+]1CCCCCCCCCCCCCC[n+]1c(C)cc(N)c2ccccc21,?
O=C(CN1C(=O)COc2ccccc21)N(Cc1ccccc1)Cc1ccccn1,-5.8%
Cc1ccc(S(=O)(=O)OC[C@@H]2CN3[C@H](c4ccc(Br)cc4)[C@H](C)CC[C@H]3C(=O)O2)cc1,0.0%[11.4 µM]
Brc1ccc(-c2nnc3sc(CN4CCC5(CC4)OCCO5)cn23)cc1,2.2%
O=C(c1sc2ccccc2c1Cl)N(Cc1cccs1)C1CCS(=O)(=O)C1 (stereo not drawn),-3.3%
COC(=O)c1[nH]c2cc(OC)ccc2c1NC(=O)CCN1CCN(c2cccc(C)c2C)CC1,?
CCn1c(SCC(=O)N2CCOCC2)nc2oc3c(Cl)cc(Cl)cc3c(=O)c2c1=O,-5.1%
COC1=C(OC)C(=O)C(C/C=C(\C)CC/C=C(\C)CC/C=C(\C)CC/C=C(/C)CC/C=C(\C)CC/C=C(\C)CC/C=C(\C)CC/C=C(\C)CC/C=C(\C)CCC=C(C)C)=C(C)C1=O,5.0%
COc1ccc(-c2cn3c(C)c(C(=O)NC(C)C)sc3n2)cc1,1.0%
NCCOc1ccccc1-c1ccccc1,-0.2%
OC1CN=C2CCCc3c2n(c2ccc(Cl)cc32)C1 (stereo not drawn),31.6µM*
Cc1nc2ccc(NC(=O)Nc3ccnc4cccnc34)cc2o1,-0.5%
CCCC(c1nnnn1Cc1ccc(OC)cc1)N1CCC(C(N)=O)CC1 (stereo not drawn),-3.6%
O=C(O)[C@@H](O)[C@@H](O)[C@H](O)C(=O)CO,5.2%[11.4 µM]
O=S(=O)(O)c1cc(O)c2c(N=Cc3ccccc3O)cc(S(=O)(=O)O)cc2c1,3.98µM*
CCCN(CCC)S(=O)(=O)c1ccc(C(=O)Nc2nnc(-c3cccc(OC)c3)o2)cc1,-3.4%
COc1ccccc1CNc1ncncc1-c1ccc2c(c1)OCO2,-25.5%
O=C(COc1ncnc2ccccc12)N1CCOCC1,-1.5%
CCc1c(C)[nH]c2c1C(=O)C(CN1CCOCC1)CC2 (stereo not drawn),-9.6%
Cc1nc2nc(C)c(CCC(=O)NCc3ccc4c(c3)OCO4)c(C)n2n1,4.7%
Cc1ccc2cc(CCNC(=O)C3CCCC3)c(=O)[nH]c2c1,-20.4%
Cc1ccc(NC(=O)C2CCCN(S(=O)(=O)c3c(C)noc3C)C2)c(C)c1 (stereo not drawn),-2.1%
CCN(CC)S(=O)(=O)N1CCC(C(=O)NCc2ccc(C)cc2)CC1,5.3%
O=C1CCC(C(=O)NC2(C(=O)NC3CCCCC3)CCCCC2)N1 (stereo not drawn),2.8%
CCCP(=O)(CC(=O)N(CC)CC)c1ccccc1 (stereo not drawn),1.1%
COc1ccc(C2CC(=O)C(C=NCCN3CCNCC3)=C(O)C2)cc1OC (stereo not drawn),0.8%
O=S(=O)(Cc1ccccc1Cl)N1CCCCC1,4.2%
COc1ccc2c(c1)CCC1C2CC[C@]2(C)[C@H](NCCCCCCN3C(=O)C=CC3=O)CC[C@@H]12 (stereo partly drawn),7.3%
O=C(NCCC1=CCCCC1)C1CCCN(c2nc3ccccc3o2)C1 (stereo not drawn),9.4%
Cc1nn(-c2ccccc2)c2sc(C(=O)N(Cc3ccco3)C(C)C(=O)NC(C)(C)C)cc12 (stereo not drawn),0.5%
CCCCS(=O)(=O)NC1=NCN(C2CCN(Cc3ccccc3)CC2)CN1,3.2%
C[C@@H]1C(=O)NC2=Nc3cccc(Cl)c3CN21,-6.6%
c1ccc(CCNCc2ccco2)nc1,1.8%[11.4 µM]
O=C1CC(c2ccc(Cl)cc2)CC(O)=C1C=NCCN1CCNCC1 (stereo not drawn),6.0%
COc1cc(-c2nc(S(=O)(=O)c3ccccc3)c(N3CCOCC3)o2)cc(OC)c1OC,-5.0%
COC(=O)c1ccccc1NC(=O)c1cccs1,4.3%
COc1c(O)cc2oc3cc(O)c(CC=C(C)C)c(O)c3c(=O)c2c1CC=C(C)C,10µM*!
COc1cccc(/C(O)=C2/C(=O)C(=O)N(CCN3CCOCC3)C2c2cccs2)c1 (stereo not drawn),-1.1%
CC1(C)N=C(c2ccc(Cl)cc2)C(=O)N1,0.7%
Cc1nn(CC(=O)NCc2cccnc2)c(=O)c2ccccc12,8.7%
CCCn1c(-c2ccc(F)cc2)nc2c(N(C)CCN(C)C)nc(C)nc21,?
CC(C)n1c(NCc2c[nH]c3ccccc23)nc2ccccc21,-0.3%
COc1cc(S(=O)(=O)N2CCN(c3ccccc3F)CC2)ccc1Cl,2.6%
CN1CCc2[nH]nc(-c3n[nH]c4c3CN(C)CC4)c2C1,4.3%[11.4 µM]
CC1S/C(=C(\C#N)C(=O)NCc2ccco2)N(c2ccc(F)cc2)C1=O (stereo not drawn),-4.7%
Cc1cc(NC(=O)Cc2c(F)cccc2Cl)no1,-1.0%
O=C(CN1CCN(c2ccccn2)CC1)Nc1ccc(Oc2ccccc2)cc1,8.8%
O=C(O)CSc1nnc(C2COc3ccccc3O2)n1-c1ccccc1 (stereo not drawn),-7.6%
CCn1c(=O)cc(OCC(=O)O)c2ccccc21,5.1%
COc1ccc(NC(=O)C2CC(=O)OC2(C)C)cc1 (stereo not drawn),4.3%
COc1ccccc1N(CC(=O)NCCSC(C)(C)C)S(C)(=O)=O,5.4%
Cc1nnc2n(CCc3ccccc3)c(=O)c3c4c(sc3n12)CCCC4,-7.8%
O=C(CN1C(=O)c2ccccc2C1=O)[C@@H](O)CN1C(=O)c2ccccc2C1=O,3.4%[11.4 µM]
CSc1cccc(NC(=O)CN(C)S(=O)(=O)c2ccccc2)c1,-2.1%
CC(C)(C)NC(=O)CN(C(=O)C1(C)CC(=O)N=C2C=CC=CN21)C1CCCC1 (stereo not drawn),31.6µM*
CC(C)C1O/C(=N/C(=O)Nc2ccc(Cl)c(Cl)c2)NC1=O (stereo not drawn),1.3%
O=C(COC(=O)C1CCCO1)Nc1cccc(C(F)(F)F)c1 (stereo not drawn),4.0%
CC(=O)NCCc1ccc(S(=O)(=O)N(C)C2CCS(=O)(=O)C2)cc1 (stereo not drawn),-5.8%
CCOC(=O)C(NC(C)=O)(OCc1ccc(F)cc1)C(F)(F)F (stereo not drawn),11.9%
Cc1c(C#N)c(SCC(N)=O)nc2c1CCCC2,7.5%

# Given with each value named: entries from further up.
CCn1c(SCC(=O)N2CCOCC2)nc2oc3c(Cl)cc(Cl)cc3c(=O)c2c1=O
  HSD17B inh = -5.1%

CC(C)n1c(NCc2c[nH]c3ccccc23)nc2ccccc21
  HSD17B inh = -0.3%

O=C(CN1C(=O)COc2ccccc21)N(Cc1ccccc1)Cc1ccccn1
  HSD17B inh = -5.8%

Cc1nc2ccc(NC(=O)Nc3ccnc4cccnc34)cc2o1
  HSD17B inh = -0.5%

# Next results follow.
structure,HSD17B inh
Cc1ccc(S(=O)(=O)NCCC(=O)NC2CCCC2)cc1,5.2%
COc1ccc2occ(NC(C)=O)c2c1,0.3%
CCN1CCN(C(=O)CSCc2nc(-c3ccc(OC)c(OC)c3)oc2C)CC1,?
CCN1CCN(c2nc(C)nc3c2sc(=S)n3C)CC1,?
CCOc1ccc(N(CC(=O)NCc2ccc(F)cc2)S(=O)(=O)c2c(C)noc2C)cc1,0.3%
CCN(CC(=O)NCc1ccc(F)cc1)Cc1nc2ccccc2c(=O)[nH]1,-0.1%
CCOCCn1c(CN2CCN(c3ccc(F)cc3)CC2)nc2c1c(=O)n(C)c(=O)n2C,7.3%
O=C(c1ccccc1)N(Cc1ccc(F)cc1)C1CCS(=O)(=O)C1 (stereo not drawn),-6.0%
CCCc1cc(=O)n2[nH]c(-c3ccc(C)cc3)cc2n1,20µM*
CCc1ccccc1-n1c(SCC(=O)Nc2ccc3c(c2)OCCO3)nc2[nH]ncc2c1=O,7.3%
COCCNC(=O)C1CCN(S(=O)(=O)N2CCC3(CC2)OCCO3)CC1,6.1%
CCCC(=O)N(c1ccc(OCC)cc1)C1C=CS(=O)(=O)C1 (stereo not drawn),13.1%
CC1CCN(S(=O)(=O)c2ccc(Cl)cc2)CC1,2.5%
CC(=O)OCC(=O)[C@@]1(O)CCC2C3CCC4=CC(=O)CC[C@@]4(C)[C@]3(F)C(O)C[C@]21C (stereo partly drawn),0.1%
OCCn1c(SCCOc2ccccc2F)nc2ccccc21,5.2%
COc1ccc(NC(=O)CSc2nnc(Cc3cccn3C)n2-c2ccc(OC)cc2)cc1,3.7%
c1csc(C2C3=C(Nc4ncnn42)c2ccccc2OC3)c1 (stereo not drawn),31.6µM*
O=S1(=O)CCC(SCc2nc3sccn3c2Br)C1 (stereo not drawn),-0.4%
CCOC(=O)c1oc2ccc(S(=O)(=O)N3CCC(C)CC3)cc2c1C,-3.9%
Cc1cc(C)nc(-n2nc(C)cc2NC(=O)c2cc(=O)c3ccccc3o2)n1,5.5%
O=C1c2oc3ccccc3c(=O)c2C(c2ccc(Cl)cc2)N1c1ncccn1 (stereo not drawn),6.8%
COc1ccc(NC(=O)CSc2nnc(C(C)C)n2N)cc1,2.7%
O=S(=O)(Nc1nc2ccccc2nc1N1CCN(c2ccccn2)CC1)c1ccc(Cl)cc1,?
Cc1cc(S(=O)(=O)NCc2ccc(S(N)(=O)=O)cc2)c(C)s1,13.7%
COC(=O)c1ccc2c(=O)n(NC(C)=O)c(=S)[nH]c2c1,?
Cc1cc(C)nc(SCc2nc(N)nc(-c3ccccc3O)n2)n1,-6.9%
CCCN1C2CCCC1CC(NC(=O)c1ccccc1F)C2 (stereo not drawn),11.4%
COC(=O)[C@@]1(Cc2ccccc2)[C@H]2c3cc(C(=O)N4CCCC4)n(Cc4ccc(OC)c(OC)c4)c3C[C@H]2CN1C(=O)c1ccccc1,18.6%
CO/N=C(\C(=O)N[C@@H]1C(=O)N2C(C(=O)O)=C(COC(C)=O)CS[C@H]12)c1csc(N)n1 (stereo in doubt),3.1%
CCOCCCNC(=O)C1CCN(S(=O)(=O)CC)CC1,11.3%
CC(=O)Nc1cc2c(=O)n(Cc3ccccc3)c(C)nc2cc1N1CCOCC1,9.5%
Cc1ccc2cccc(OC(=O)c3ccc4c(c3)OCCO4)c2n1,-8.7%
O=S(=O)(O)[C@@H](c1ccccc1)[C@@H](O)c1ccccc1,5.7%[11.4 µM]
Cc1cc(NC(=O)CCN2C(=O)c3ccccc3C2=O)no1,2.1%
COc1ccc(Oc2ncc3nc(-c4ccc(OC)cc4)c(=O)n(C4CC4)c3n2)cc1,?
Cc1nc2ncnn2c(C)c1CCC(=O)Nc1ccc(S(=O)(=O)N2CCCCCC2)cc1,1.1%
Cc1ccc2cc(CCNC(=O)C(C)C)c(=O)[nH]c2c1,-20.0%
COc1ccc(CCNS(=O)(=O)c2ccc3c(c2)oc(=O)n3C)cc1OC,6.7%
CCOC(=O)c1c(NC(=O)c2ccoc2C)sc2c1CCC2,31.6µM*
Cc1nc(CSc2nnc3scc(-c4ccccc4)n23)cs1,0.0%
O=C1C(Cl)=C(N2CCN(Cc3ccccc3)CC2)C(=O)N1c1ccccc1,-2.3%
COc1ccc(CNC(=O)c2ccc(NS(=O)(=O)c3c(C)noc3C)cc2)cc1,-1.1%
CCOC(=O)N1CCC(NS(=O)(=O)c2ccc3c(c2)OCC(=O)N3)CC1,-5.5%
CC1CN(S(=O)(=O)c2ccc(Cl)c(C(F)(F)F)c2)CC(C)O1 (stereo not drawn),7.8%
Cc1c(NS(=O)(=O)c2cccs2)c(=O)n(-c2ccccc2)n1C,-0.5%

# Among those listed so far, these contain a tert-butyl group:
structure,HSD17B inh
Cc1nn(-c2ccccc2)c2sc(C(=O)N(Cc3ccco3)C(C)C(=O)NC(C)(C)C)cc12 (stereo not drawn),0.5%
COc1ccccc1N(CC(=O)NCCSC(C)(C)C)S(C)(=O)=O,5.4%
CC(C)(C)NC(=O)CN(C(=O)C1(C)CC(=O)N=C2C=CC=CN21)C1CCCC1 (stereo not drawn),31.6µM*

# (cont.)
structure,HSD17B inh
CN1C(=O)N(C)C2(c3ccccc3)N(C)C(=O)NC12c1ccccc1 (stereo not drawn),11.1%
COCC(=O)Nc1nc2n(n1)C(c1ccc(OC)cc1)CC(c1ccc(OC)cc1)N2 (stereo not drawn),3.4%
CCC(=O)N(c1ccc(F)cc1)C1C=CS(=O)(=O)C1 (stereo not drawn),1.0%
Cn1c(=O)c2c(nc(N3CCOCC3)n2CC(=O)C23CC4CC(CC(C4)C2)C3)n(C)c1=O,2.9%
COc1ccccc1-n1nnnc1SCc1ccccc1,0.5%
Cc1ccc(N2Cc3ccccc3OC(C)C2=O)cc1 (stereo not drawn),4.2%
Cc1ccc(-c2noc(CN3CCN(c4ccccc4F)CC3)n2)cc1,7.4%
O=C(c1ccc2c(c1)OCCO2)C1CCN(C(=O)c2ccc(F)cc2)CC1,-13.5%
Cc1ccc(-c2ccc(OCC(=O)N3CCOCC3)cc2)cc1,-0.1%
O=C(NCc1ccccc1)N1CCC(c2nc3ccccc3[nH]2)CC1,2.6%
Cc1ccc(C(=O)OCC(=O)c2ccc(Cl)s2)s1,-3.5%
CC(=O)Nc1ccc(Nc2ncnc3c2cnn3-c2ccccc2)cc1,?
O=C(Nc1ccc(F)cc1F)c1ccco1,4.1%
COc1ccc(C2CC(c3cccc(OC)c3)n3nc(N)nc3N2)cc1 (stereo not drawn),-23.2%

# Screening results (PubChem BioAssay)

# An excerpt (hit frequency here may not be typical).
